# Screening results from PubChem.
# MARV entry inh: Marburg virus entry inhibition; Marburg virus pseudotyped entry inhibition, cell reporter; control for the full effect not named in the record; about a third of the inactives were read at about 46 µM; Potency, µM (doses to about 37.8 µM), without a hit: at the top dose activity change, negative = inhibition, hits mostly inhibitors; hit rate 1.8% among 300,000; active = well fitted inhibition curve with a large enough effect; inconclusive = small, poorly fitted or top-dose-only effect, or effect the other way; inactive = flat fitted curve, though single readings scatter; tested in HEK293 cells; about a fifth of its hits are not listed in these tables; further: on the % scale 0 is the no-effect control and ±100 the full control effect; luciferase read-out
# Cruzain noTriton: blocks cruzain activity in detergent-free assay; P25779; purified cruzain, Z-FR-AMC fluorescence, no detergent; Potency, µM, for the others: max response, negative = inhibition, actives largely listed as inhibitors; hit rate 2.3% among 200,000; AID 1476;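 further: plate controls were enzyme without inhibitor for no effect and buffer without enzyme for full effect; nearly all actives have a fitted effect of over 40% in size; top concentration of the series not given in the record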
# Target sequence (P25779 123-467 limits assumed): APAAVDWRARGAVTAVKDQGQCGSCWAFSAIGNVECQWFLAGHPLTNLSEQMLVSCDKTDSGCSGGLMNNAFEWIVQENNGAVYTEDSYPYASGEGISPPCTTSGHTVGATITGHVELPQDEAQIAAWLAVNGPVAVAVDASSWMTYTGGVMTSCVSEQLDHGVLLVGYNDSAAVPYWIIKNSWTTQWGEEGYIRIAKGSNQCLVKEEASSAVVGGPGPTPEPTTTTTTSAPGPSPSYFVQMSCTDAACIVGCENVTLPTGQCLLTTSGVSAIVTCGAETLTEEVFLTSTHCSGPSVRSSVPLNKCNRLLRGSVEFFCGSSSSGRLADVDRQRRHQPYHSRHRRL
#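 Detergent-free condition (0.00005% Triton X-100) in acetate buffer pH 5.5 with DTT. 1.5 nM enzyme and compound were pre-mixed 15 min, then 2 uM Z-FR-AMC substrate added; reaction progress from fluorescence change between first and third reads (60 s).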
# SARS PLP yeast: blocks SARS-CoV papain-like protease in a yeast assay. AID 485353. Potency, µM (highest dose often 32.9 µM), inactives show at the top dose activity, positive = growth rescue. hit rate 0.19% among 330,000. S. cerevisiae expressing SARS-CoV PLpro, growth rescue; control for the full effect not named in the record; active means well fitted rising curve with a large enough effect; inconclusive means small, poorly fitted or top-dose-only effect; inactive means no such curve, though single readings can be large or run the other way; further: 0% is about no effect; nearly all actives have a fitted effect of over 55% in size; growth read by luminescence after 48 h
# Lassa entry inh: blocks Lassa virus binding to or entry into cells; Lassa virus pseudotype entry inhibition, cell reporter; control for the full effect not named in the record; AID 540256; hit rate 1.2% among 300,000; Potency, µM (highest dose often 37.9 µM), without a hit: at the highest dose activity change, negative = inhibition, hits mostly inhibitors; active means well fitted inhibition curve with a large enough effect; inconclusive means small, poorly fitted or top-dose-only effect, or effect the other way; inactive means flat fitted curve, though single readings scatter; tested in HEK293 cells; further: on the % scale 0 is the no-effect control and ±100 the full control effect; nearly all actives have a fitted effect of over 50% in size; luciferase read-out
# StopGo reporter: FMDV 2A StopGo reporter, luciferase signal; Potency, µM (doses to about 57.9 µM), for the others: top-dose signal change, negative = less light; hit rate 1.2% among 410,000; AID 1159524; human cells with a luciferase reporter of 2A StopGo recoding; control for the full effect not named in the record; active = well fitted falling curve with a large enough effect; inconclusive = small, poorly fitted or top-dose-only effect; inactive = no such curve, though single readings can be large or run the other way; tested in HEK293T cells; further: on the % scale 0 is the no-effect control and ±100 the full control effect; nearly all actives have a fitted effect of over 45% in size; luciferase light after 4 h
# Cruzain Triton: cruzain (T. cruzi) inhibition with detergent. purified cruzain, Z-FR-AMC fluorescence, 0.01% Triton. hit rate 0.43% among 200,000. Potency, µM, for inactives: max response, negative = inhibition, hits mostly inhibitors;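 further: plate controls were neutral wells for no effect and buffer without enzyme for full effect; nearly all actives have a fitted effect of over 40% in size; top concentration of the series not given in the record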
#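 Detergent-containing arm of a paired screen for aggregation-based inhibition: 0.01% Triton X-100 present. Cruzain at 1.5 nM cleaved 2 uM Z-FR-AMC at pH 5.5 with 5 mM DTT; AMC fluorescence gain over 60 s measured activity.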
# NS1 inh: blocks influenza NS1 protein function | S. cerevisiae slowed by influenza A NS1, growth recovery by OD600 | Potency, µM (doses to about 46.1 µM), without a hit: at the top dose activity, positive = more growth | hit rate 0.4% among 270,000 | AID 2326; active means well fitted rising curve with a large enough effect; inconclusive means small, poorly fitted or top-dose-only effect; inactive means no such curve, though single readings can be large or run the other way; further: nearly all actives have a fitted effect of over 50% in size
#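 S. cerevisiae expressing influenza A NS1, grown in glucose, washed, then diluted 1:100 into pH 6.0 -URA galactose medium with 23 nl compound. Growth recovery read as OD600; NS1-free strain serves as control.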
# RE007 growth inh: less growth of the S. pombe RE007 Vpr strain | S. pombe RE007 Vpr strain, BacTiter-Glo ATP luminescence, 24 h; control for the full effect not named in the record | Potency, µM (top dose mostly 92.2 µM), without a hit: at the top dose activity change, negative = less growth | hit rate 0.21% among 360,000; active = well fitted falling curve with a large enough effect; inconclusive = small, poorly fitted or top-dose-only effect; inactive = no such curve, though single readings can be large or run the other way;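 further: on the % scale 0 is the no-effect control and ±100 the full control effect; nearly all actives have a fitted effect of over 50% in size; the assay follows cell death caused by Vpr and the record does not say whether a fall means rescue or toxicity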
#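 Fission yeast strain RE007, carrying one chromosomally integrated HIV-1 vpr copy, was seeded at OD 0.01 in PMG+AL medium with 23 nL pinned compound. After 24 h at 30 °C and 99% humidity, viability was read by BacTiter-Glo luminescence.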
# Numbers without * were called inactive; ? = inconclusive; . = no result given; & = joins results of further samples; [ ] = dose if it differs, or a comment. Unless noted, the call rests on the fitted dose curve; in most records, active means well fitted curve in the direction sought with a large enough effect; inconclusive means small, poorly fitted or top-dose-only effect, or another doubt; inactive means no such curve, though single readings can be large; an effect the other way counts as inactive or inconclusive. Potency means the concentration at half of the fitted maximal effect.
SMILES,MARV entry inh,Cruzain noTriton,SARS PLP yeast,Lassa entry inh,StopGo reporter,Cruzain Triton,NS1 inh,RE007 growth inh
C=CCn1c(SCCCc2ccccc2)nc2c1c(=O)[nH]c(=O)n2C,-30%,-3%,5%,-15%,?,-6.3%,-70%,18%
COc1ccc(N2CCN(C(=O)CC(C)S(=O)(=O)c3ccc4c(c3)NC(=O)CO4)CC2)cc1 (stereo not drawn),?,.,-2%,?,?,.,-15%,8%
OCC1(Cc2ccccc2)CCN(CCCC2CCCC2)CC1,.,.,-1%,.,-18%,.,4%,15%
CCCCc1nc2cc(C(=O)N3CCNC(=O)C3)ccc2o1,.,.,5%,.,2%,.,1%,-1%
COc1ccc(CCNC(=O)c2ccc(CNS(=O)(=O)c3cccc(Cl)c3)cc2)cc1OC,?,21%,-1%,?,?,-0.4%,-3%,30%
CCC(C)N(C(=O)c1csnn1)C(C(=O)NC1CCCC1)c1ccc(F)cc1 (stereo not drawn),5%[46.1 µM],.,-2%,3%,-12%,.,-4%,-14%
CC(C)CCN1C(=O)c2ccc(C(=O)Nc3ccc(O)cc3C(=O)O)cc2C1=O,.,.,-3%,.,-13%,.,4%,4%
Cc1ccc(NC(=S)NC2CCCCC2)cc1S(=O)(=O)N(C)C,?,.,0%,?,10%,.,-3%,-3%
O=C1OC2(CCCCC2)OC(=O)C1=CNc1ccc2c(c1)OCO2,13%,0%,-2%,-23%,28%,-9.3%,-3%,-10%
CCn1c(C)cc(=S)c2ccccc21,20%,-5%,1%,11%,-24%,-13%,4%,-6%
CCOc1ccc(-c2nnc(SCC(=O)Nc3cc(F)ccc3F)o2)cc1,18%[46.1 µM],10µM*,.,21%[46.1 µM],60%[activator],-7.3%,.,.
CC[C@H](C)[C@@H]1NC(=O)c2cc([N+](=O)[O-])cc(I)c2SC[C@@H](C(N)=O)NC(=O)[C@H](CCCCN)NC1=O,-25%,11%,-1%,-11%,0%,-22%,-6%,-2%
O=C(Nc1ccc(OCc2cc(=O)n3ccccc3n2)cc1)c1ccccc1Cl,.,7%,.,27%[46.1 µM],4%,4.5%,.,.
O=C(C(Sc1ccccc1)c1ccc(Br)cc1)N1CCOCC1 (stereo not drawn),.,-4%,-16%,.,-5%,-3.6%,-4%,-2%
CN(C)C(=O)c1ccc(NC(=O)c2cncc(Br)c2)cc1,0%,3%,-20%,?,58%[activator],1.2%,0%,-2%
COC(=O)c1ccc(/C=N/OCC(=O)NC2CCCCCCC2)cc1,-30%,0%,3%,-14%,-22%,-2.3%,-60%,4%
O=C(Nc1cccc(NC(=O)c2ccccc2F)c1)c1ccccc1,.,-18%,1%,22%[46.1 µM],37%&9%[activator],-5.1%,-2%,13%
COc1cccc(NC(=O)COC(=O)CCOc2ccccc2OC)c1,25%[46.1 µM],.,-1%,-22%,7%,.,-13%,-1%
O=C(Cn1cc(SCc2ccc(C(F)(F)F)cc2)c2ccccc21)N1CCCC1,.,18%,.,?,8%,-15%,.,.
Oc1c(CN2CCN(c3ccc(F)cc3)CC2)cc(Cl)c2cccnc12,.,6%,-29%,.,?,-2.4%,-32%,?
Cc1ccc(NC(=O)C(C)OC(=O)/C=C/c2ccccc2)cc1S(=O)(=O)N1CCOCC1 (stereo not drawn),-24%[46.1 µM],.,-3%,-5%,12%,.,.,-6%
COc1ccnc(N=CNOCc2cccc(C(F)(F)F)c2)c1C#N,-6%[46.1 µM],.,-2%,?,-11%,.,-5%,-5%
Cc1cc(Br)ccc1OCC(=O)NNC(=O)Cc1ccccc1,-20%,-6%,-3%,5%,4%,1.3%,9%,6%
COc1ccc(NC(=O)C23CC4CC(C2)CC(n2cnc(Br)n2)(C4)C3)c(OC)c1,?,3%,6%,-2%,-11%,-1.3%,-14%,-4%
Cc1ccc(SCc2[nH]nc3c2C2(C(=O)N(C)c4ccccc42)C(C#N)=C(N)O3)cc1 (stereo not drawn),-26%,-2%,7%,?,?,-5.2%,-32%,-13%
Cc1ccccc1C(=O)Oc1cccc(Nc2ncnc3ccccc23)c1,11µM*,.,.,10µM*,16µM*,.,.,?
COCCNC(=O)C(c1cccs1)N(Cc1cccs1)C(=O)Cn1nnc2ccccc21 (stereo not drawn),-14%,15%,15%,-3%,15%,-2.2%,-12%,-3%
O=C(NC(=S)Nc1ccc([N+](=O)[O-])cc1O)C1CCCCC1,.,.,10%,.,-2%,.,?,-11%
C/C(=N\Nc1nccnc1Cl)c1c(F)c(F)c(F)c(F)c1F,3%,-9%,43%,0%,-7%,-4.6%,10%,2%
Cc1ccc(C2CC(c3ccc(Cl)cc3)=NNC2=O)cc1 (stereo not drawn),6%,3%,-20%,?,?,-10%,-49%,-20%
Cc1cccc(N2CCN(C(=O)c3ccc4c(c3)c(C)c(C)n4C)CC2C)c1 (stereo not drawn),.,7%,-10%,25%[46.1 µM],1%&-18%,-4.5%,-20%,15%
Cc1cccc(C)c1OP(N)(=O)OCC(F)(F)F (stereo not drawn),?,8%,-9%,20%,9%,1.5%,5%,35%
O=C(O)c1ccccc1C(=O)Nc1nc(-c2ccc3ccccc3c2)cs1,.,.,-5%,.,33%[activator],.,?,6%
O=[N+]([O-])c1ccc(-c2ccn[nH]2)o1,2%,-4%,-4%,?,-10%,-4.0%,-15%,-18%
Cc1c(/C=C/C(=O)c2cccs2)cnn1C,4%,?,-39%,?,51%[activator],-14%,0%,?
COc1ccc(-c2nc(SCC(=O)Nc3ccc4c(c3)OCCO4)c(-c3ccc(F)cc3)[nH]2)cc1OC,?,?,.,?,-4%,-5.6%,.,.
Cc1nn2c(=O)cc(COC(=O)COc3ccc(F)cc3)nc2s1,.,-2%,.,11%[46.1 µM],-23%,-4.3%,.,.
CC1CC(C)CN(C(=O)COC(=O)Cc2ccc(Cl)cc2)C1 (stereo not drawn),12%,.,0%,1%,2%,.,-11%,-13%
CCN(CCNC(=O)c1ccc(CSc2nc3ccncc3[nH]2)cc1)c1ccccc1,-43%,3%,2%,?,-16%,-2.0%,-2%,3%
COc1cc(C(CC(=O)N2CCOCC2)c2c(OC)cc(OC)c3ccc(=O)oc23)cc(OC)c1OC (stereo not drawn),.,.,4%,.,-6%,.,-2%,5%
O=C1NCCN1c1ccc(CN2CCN(C3CCCCC3)C(CCO)C2)cc1 (stereo not drawn),2%,.,0%,25%,3%,.,3%,-20%
CCOC(=O)c1c(O)c2c(n(Cc3ccco3)c1=O)CCCC2,-24%,5%,-3%,-27%,-5%,-0.3%,-50%,16%
O=S(=O)(c1ccccc1)N1CCC(O)(CSc2ccccc2)CC1,?,.,0%,-6%,?,.,.,-1%
COC(=O)c1cnn2c(C(F)(F)F)cc(-c3ccc(F)cc3)nc12,-18%,-6%,4%,-9%,-2%,4.0%,-10%,12%
COc1ccc(C(=O)NC(=S)Nc2cccc(S(=O)(=O)N3CCOCC3)c2)cc1,-19%[46.1 µM],.,3%,?,0%,.,13%,9%
CCOC(=O)C1(CCc2ccccc2)CCN(Cc2c(O)cccc2OC)CC1,?,.,-1%,?,32µM*,.,-5%,4%
CC1COc2ccccc2N1C(=O)c1ccccc1Cl (stereo not drawn),-15%[46.1 µM],.,1%,2%[46.1 µM],-24%,.,4%,-18%
Cn1c(=O)[nH]c(=O)c2c1nc1n2CCCN1CCc1ccccc1,14%[46.1 µM],-13%,-2%,15%,-23%,-11%,2%,21%
CCOc1ccc(CN2CCNC(=O)C2CC(=O)NCCCOc2cccnc2)cc1 (stereo not drawn),.,.,20%,.,-22%,.,-9%,-4%
O=C(O)c1ccccc1N=Nc1c(O)[nH]c2ccc([N+](=O)[O-])cc12,9%[46.1 µM],.,-1%,18%[46.1 µM],33%[activator],.,-3%,1%
O=C(NCCC(=O)N1CCN(C(=O)c2ccco2)CC1)c1ccc(Br)cc1,12%,.,-19%,1%,6%,.,.,19%
O=C(CCN1C(=O)c2ccc([N+](=O)[O-])cc2C1=O)Nc1ccc(O)cc1C(=O)O,4%[46.1 µM],.,0%,-1%,-2%,.,.,-21%
Oc1ccc(-c2nc3ccccc3nc2-c2ccccc2)cc1,?,.,-1%,-10%[46.1 µM],-25%,.,-71%,-9%
CCOc1ccc(-c2cn3c(n2)sc2cc(C(=O)NCCc4ccc(OC)c(OC)c4)ccc23)cc1,?,15%,.,.,-6%,-1.6%,.,.
COc1cccc(-c2c(C(=O)N/N=C/c3ccc(C)o3)nnn2-c2nonc2N)c1,.,.,3%,.,0%,.,-2%,-4%
O=S(=O)(c1cccs1)N1CCN(S(=O)(=O)c2cccs2)CC1,0%[46.1 µM],.,1%,.,8%,.,-1%,-15%
NCc1cc2c3c(c1)CCCN3CCC2,15%[46.1 µM],.,-1%,0%[46.1 µM],-10%,.,-1%,-3%
COc1ccc(C(=O)CSc2nnc(CNC(=O)c3ccc(S(=O)(=O)N(C)C)cc3)o2)cc1,?,.,-7%,?,-16%,.,10%,6%
CCN(CC)S(=O)(=O)c1ccc(N2CCOCC2)c(NC(=O)C2CC2)c1,-8%[46.1 µM],.,1%,13%,-3%,.,.,-1%
O=C(Nc1ccc(F)cc1F)c1c(C(F)(F)F)ccnc1Oc1ccc(Cl)cc1,?,.,0%,-23%,-6%,.,-3%,3%

# Next section:
SMILES,MARV entry inh,Cruzain noTriton,SARS PLP yeast,Lassa entry inh,StopGo reporter,Cruzain Triton,NS1 inh,RE007 growth inh
COc1ccc(CN2CCNC(=O)C2CC(=O)NCCc2cnccn2)cc1C (stereo not drawn),1%,.,2%,-1%,-17%,.,11%,-2%
O=C(CSc1nnc(SCC(=O)c2ccco2)s1)c1ccco1,?,-10%,0%,2%,2%,-5.5%,1%,-1%
O=C(c1cccc2ccccc12)N1CCN(c2ccccc2F)CC1,2%,1%,4%,-24%,11%,-3.9%,-72%,?
COc1ccc(OCC(O)CN2CCN(c3ncccn3)CC2)cc1 (stereo not drawn),?,-6%,-16%,-27%,-9%,0.9%,5%,7%
O=C(NCc1noc2ccccc12)N1CCN(c2ccccc2F)CC1,.,12%,.,30%[46.1 µM],42%[activator],-0.8%,.,.
CCCCCn1c(C)c2c(OCC)cccc(=O)c2c1C,.,.,-5%,.,-27%,.,6%,-3%
